Hedgehog inh = Sonic Hedgehog pathway inhibition; Shh-LIGHT2 Gli-luciferase reporter, 30 h; 2.1% of 22,000 active; inhibition, % (concentration not given with the values);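 active = replicate mean of 65% or more; inconclusive = mean lower but half the replicates past it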;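 note: pathway switched on by Shh-conditioned medium diluted 1 in 25 in low serum; 100 nL library stock added to about 40 µL; 0% = median of neutral wells and 100% = positive control level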
MITF inh = inhibitors of MITF. TRPM1 promoter luciferase, luminescence, 24 h. inhibition, % (concentration not given with the values). 0.28% of 37,000 active;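 active = most replicates at 85% or more, or half of them and the mean; inconclusive = half reach 85% but not the mean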;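 note: human melanocyte line stably carrying TRPM1 promoter luciferase reporter; 0% = vehicle wells and 100% = a positive control; the first replicate is given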
PD-1 reversal = activators reversing PD-1 mediated T-cell inhibition; primary human CD4 T cells, PD-L1 beads, CellTiter-Glo 96 h; activation, % (concentration not given with the values); 29,000 tested, under 10 active;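 active = replicate mean of 50% or more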;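 note: 0% = median vehicle wells and 100% = positive control; 100 nL library stock added to about 50 µL; numbers are from one replicate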
YB-1 expression = YB-1 expression inhibition. delta delta Cp (YB-1 minus CDIP) (concentration not given with the values). 0.37% of 30,000 active. U2OS, qRT-PCR YB-1 vs CDIP delta delta Cp, 16 h; stronger effect = higher value; zero = DMSO, each unit about twofold;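 active = delta delta Cp rounded down to an integer at or above 3, about 3 SD of DMSO wells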;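 note: higher means less YB-1 transcript or more CDIP transcript relative to DMSO; stock transfer was 100 nL into about 100 µL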
* marks the source's active call; other numbers are inactive results; ? = inconclusive; . = no result given.

cpd	smiles	Hedgehog inh	MITF inh
1	C[C@@H]1C[C@H]2OC[C@@]3(C)CCC[C@](C)(C23)[C@@]1(O)CCc1ccoc1 (stereo not given in full)	-24	.
2	C[C@H]1CN([C@@H](C)CO)C(=O)Cc2cc(NC(=O)Cn3cnnn3)ccc2O[C@@H]1CN(C)C(=O)Nc1ccc(C(F)(F)F)cc1	-47	-16
3	Cc1noc(C)c1NC(=O)Nc1ccc2c(c1)C(=O)N([C@H](C)CO)C[C@@H](C)[C@H](CN(C)C(=O)Nc1cccc3ccccc13)O2	.	3
4	C[C@@H]1CN([C@H](C)CO)C(=O)Cc2cc(NC(=O)CCN3CCOCC3)ccc2O[C@@H]1CN(C)Cc1ccc(Cl)c(Cl)c1	48	-14
5	C[C@@H]1CN([C@H](C)CO)C(=O)c2cc(NC(=O)Cc3ccccc3)ccc2O[C@H]1CN(C)S(=O)(=O)c1cccs1	.	-13
6	C[C@@H]1CN([C@@H](C)CO)C(=O)c2cc(NS(=O)(=O)c3cccs3)ccc2O[C@@H]1CN(C)Cc1ccccc1	6	5
7	Cc1cccc(C)c1OCC(=O)NCc1ccccn1	.	-15
8	CC(=O)Nc1ccc(NC(=O)COc2ccccc2C(=O)Nc2cccc(C)c2C)cc1	.	7

cpd	PD-1 reversal	YB-1 expression
1	.	-0.51
2	-0.1	0.094
3	1.4	0.14
4	-1.8	0.41
5	1.1	-0.19
6	0.1	0.45
7	1.2	.
8	-1.1	.

cpd	smiles	Hedgehog inh	MITF inh
9	C[C@H]1CN([C@@H](C)CO)C(=O)c2cc(NS(=O)(=O)c3ccc(F)cc3)ccc2O[C@H]1CN(C)S(=O)(=O)c1ccc(F)cc1	.	-3
10	C[C@H]1CN([C@@H](C)CO)C(=O)c2cccc(N(C)C)c2O[C@@H]1CN(C)C(=O)NC1CCCCC1	-24	-1
11	N=C1C(c2nc3ccccc3s2)=C(O)CN1CCCN1CCOCC1	.	-21
12	CC(C)NC(=O)Nc1cccc2c1O[C@@H](CN(C)Cc1ccc(C(=O)Nc3ccccc3N)cc1)[C@@H](C)CN([C@@H](C)CO)C2=O	.	19
13	Cc1ccc(-n2c(SCC(=O)Nc3cccc(C)c3C)nnc2-c2ccncc2)cc1C	.	9
14	c1ccc2sc(NC3=NCN(C4CCCCCC4)CN3)nc2c1	-7	4
15	C[C@@H]1CN([C@@H](C)CO)C(=O)c2cc(NC(=O)Nc3ccc4c(c3)OCO4)ccc2O[C@@H]1CN(C)C	.	8
16	Cc1ccc(S(=O)(=O)Nc2ccc3c(c2)C(=O)N([C@@H](C)CO)C[C@H](C)[C@@H](CN(C)Cc2ccc(C(F)(F)F)cc2)O3)cc1	.	3

cpd	PD-1 reversal	YB-1 expression
9	-3.5	0.36
10	.	0.38
11	-2.4	.
12	-2.2	-0.42
13	-2.1	.
14	-0.1	0.36
15	1.5	0.31
16	-0.3	-0.052

cpd	smiles	Hedgehog inh	MITF inh
17	COc1ccc(S(=O)(=O)Nc2ccc3c(c2)C(=O)N([C@@H](C)CO)C[C@H](C)[C@H](CN(C)C(=O)Nc2ccc(F)cc2)O3)cc1	.	-11
18	C[C@H]1CN([C@@H](C)CO)C(=O)c2cc(NC(=O)Cn3cnnn3)ccc2O[C@@H]1CN(C)Cc1ccccc1	.	?
19	CC1CCc2c(sc3ncnc(NCCCOC(C)C)c23)C1 (stereo not given)	.	12
20	Cc1noc(C)c1S(=O)(=O)Nc1ccc2c(c1)CC(=O)N([C@@H](C)CO)C[C@@H](C)[C@@H](CN(C)Cc1ccccc1)O2	.	-41
21	COc1ccc(S(=O)(=O)Nc2ccc3c(c2)CC(=O)N([C@@H](C)CO)C[C@H](C)[C@@H](CN(C)S(=O)(=O)c2ccc(C)cc2)O3)cc1	29	5
22	C/C=C1/[C@H](O[C@@H]2O[C@H](CO)[C@@H](O)[C@H](O)[C@H]2O)OC=C2C(=O)O[C@@H]3C[C@@H](C(C)CO)[C@H](COC(=O)C[C@H]21)[C@H]3C (stereo not given in full)	-7	-5
23	CC(=O)Oc1ccc2c(c1)CCC1C2CC[C@@]2(C)C1CC[C@@H]2OC(C)=O (stereo not given in full)	67*	-8
24	CNC[C@@H]1OCCCC[C@@H](C)Oc2ccc(N(C)C)cc2C(=O)N([C@H](C)CO)C[C@@H]1C	.	4

cpd	PD-1 reversal	YB-1 expression
17	0.2	-0.48
18	2.6	0.65
19	-6.2	.
20	0.4	-0.15
21	.	0.19
22	-1.1	-0.064
23	.	-0.12
24	0.8	-0.42

cpd	smiles	Hedgehog inh	MITF inh
25	CC(=O)Oc1ccc2occ(C(=O)c3cc4ccccc4o3)c2c1	-96	27
26	CS/C(=N\S(=O)(=O)c1cc(C(F)(F)F)cc(C(F)(F)F)c1)N1CCOCC1	0	16
27	C[C@@H]1CN([C@@H](C)CO)C(=O)c2cc(NC(=O)C3CC3)ccc2O[C@H]1CN(C)C(=O)Nc1ccccc1	.	1
28	C[C@@H]1CN([C@H](C)CO)C(=O)c2cccc(NC(=O)C3CCOCC3)c2O[C@H]1CN(C)Cc1ccc(C(=O)Nc2ccccc2N)cc1	.	-15
29	Cc1ccc(S(=O)(=O)Nc2cccc3c2O[C@@H](CN(C)CC2CCCCC2)[C@@H](C)CN([C@@H](C)CO)C3=O)cc1	41	3
30	CCOC(=O)c1cnc2c(C(F)(F)F)cccc2c1NCCO	.	-23
31	NC(=O)CSc1nc2ccc([N+](=O)[O-])cc2[nH]1	.	18
32	C[C@@H]1CN([C@H](C)CO)C(=O)c2cccc(NC(=O)NC3CCCCC3)c2O[C@@H]1CN(C)Cc1ccc2c(c1)OCO2	9	-10

cpd	PD-1 reversal	YB-1 expression
25	-0.3	0.46
26	1.3	-0.61
27	-0.7	-0.29
28	0.8	0.073
29	-0.9	-0.22
30	-2.4	.
31	-1.1	.
32	3.1	0.14

Reformatted: 4 of the compounds above.
25) CC(=O)Oc1ccc2occ(C(=O)c3cc4ccccc4o3)c2c1
26) CS/C(=N\S(=O)(=O)c1cc(C(F)(F)F)cc(C(F)(F)F)c1)N1CCOCC1
27) C[C@@H]1CN([C@@H](C)CO)C(=O)c2cc(NC(=O)C3CC3)ccc2O[C@H]1CN(C)C(=O)Nc1ccccc1
28) C[C@@H]1CN([C@H](C)CO)C(=O)c2cccc(NC(=O)C3CCOCC3)c2O[C@H]1CN(C)Cc1ccc(C(=O)Nc2ccccc2N)cc1
screen / no.	25	26	27	28
Hedgehog inh	-96	0	.	.
MITF inh	27	16	1	-15
PD-1 reversal	-0.3	1.3	-0.7	0.8
YB-1 expression	0.46	-0.61	-0.29	0.073

Along the list, quoted from above.
Nos. 14–19 in PD-1 reversal: -0.1, 1.5, -0.3, 0.2, 2.6, -6.2
Nos. 14–19 in MITF inh: 4, 8, 3, -11, ?, 12

Continued:
cpd	smiles	Hedgehog inh	MITF inh
33	C[C@H]1CN([C@@H](C)CO)C(=O)c2cccc(NC(=O)c3nc4ccccc4s3)c2O[C@H]1CN(C)C(=O)Nc1ccccc1	24	-16
34	CC(=O)Nc1ccc(Nc2ncnc3c2cnn3Cc2ccc(Cl)cc2)cc1	.	5
35	COc1ccc(-c2csc3ncnc(SCc4c(C)noc4C)c23)cc1	.	7
36	Cc1ccc(S(=O)(=O)N(C)C[C@@H]2Oc3ccc(NS(C)(=O)=O)cc3C(=O)N([C@@H](C)CO)C[C@@H]2C)cc1	25	-7
37	COc1ccc2c(c1OC)C(=O)N(c1ncn[nH]1)C2	.	-19
38	C[C@@H]1CN([C@H](C)CO)C(=O)Cc2cc(NS(=O)(=O)c3ccccc3)ccc2O[C@@H]1CN(C)Cc1ccccc1	61	-1
39	C[C@H]1CN([C@@H](C)CO)C(=O)Cc2cc(NC(=O)c3ccncc3)ccc2O[C@H]1CN(C)Cc1ccc2c(c1)OCO2	0	12
40	CC(C)(O)/C=C/C1=CC(O)C(C)(O)CC1O (stereo not given)	-13	-7

cpd	PD-1 reversal	YB-1 expression
33	.	-0.38
34	0.7	.
35	-3.2	.
36	0.8	-1.2
37	0.7	0.046
38	0.4	0.39
39	1.4	-0.22
40	-1.0	-0.2

cpd	smiles	Hedgehog inh	MITF inh
41	COc1cc(O[C@@H]2O[C@H](CO[C@H]3OC[C@](O)(COC(=O)c4ccc(O)c(OC)c4)[C@H]3O)[C@@H](O)[C@H](O)[C@H]2O)ccc1O	16	6
42	CSc1ccccc1NC(=O)CN(C)S(=O)(=O)c1ccc(Cl)cc1	.	34
43	C[C@@H]1CN([C@H](C)CO)C(=O)Cc2cc(NC(=O)Cc3ccccc3)ccc2O[C@@H]1CN(C)S(=O)(=O)c1ccccc1	-8	2
44	C[C@@H]1CN([C@@H](C)CO)C(=O)Cc2cc(NC(=O)CCN3CCOCC3)ccc2O[C@@H]1CN(C)S(=O)(=O)c1ccc(F)cc1	-13	-10

cpd	PD-1 reversal	YB-1 expression
41	1.1	0.32
42	0.3	.
43	-2.5	0.21
44	0.6	-0.14

Bioassay records from PubChem.

A portion of the library; the hit share may differ from the screen's.
